# Assay outcomes: PubChem, ICCB-Longwood Screening Facility, Harvard Medical School
# E coli growth: E. coli growth inhibition; Escherichia coli growth, OD600, 23 h; stronger effect = lower value; OD600 absorbance (concentration not given with the values); 0.21% of 330,000 active; AID 1053175;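 active means OD600 absorbance below the run mean of sample wells minus 3.6 SD, in any replicate, cut at about 0.56 in these data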;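 further: stock transfer was 300 nL into about 60 µL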
# UCH37 DUB inh: human UCH37 deubiquitinating enzyme inhibition; Q9Y5K5; purified proteasome/UCH37, Ub-AMC cleavage fluorescence; inhibition, % (no concentration beside the values); 0.33% of 330,000 active;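 active means mean of two replicates above 20%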;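 further: 0% = compound-free wells with enzyme and 100% = wells lacking proteasome; stock transfer was 100 nL into about 20 µL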
# Target sequence (Q9Y5K5 whole entry, looked up): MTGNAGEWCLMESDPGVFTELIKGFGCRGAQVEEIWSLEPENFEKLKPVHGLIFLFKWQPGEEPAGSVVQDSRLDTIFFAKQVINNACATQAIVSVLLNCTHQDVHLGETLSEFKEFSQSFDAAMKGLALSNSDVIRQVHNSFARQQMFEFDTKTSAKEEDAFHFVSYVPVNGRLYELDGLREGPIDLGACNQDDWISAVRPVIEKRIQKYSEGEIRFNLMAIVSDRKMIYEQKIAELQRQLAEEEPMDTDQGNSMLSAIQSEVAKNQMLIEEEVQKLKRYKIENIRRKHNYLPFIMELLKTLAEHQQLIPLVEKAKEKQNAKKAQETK
#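 Material: Human UCH37 enzyme supplied as purified proteasome complex | Schedule: 30 min compound-proteasome preincubation then 25 min substrate reaction, room temperature | Detection: AMC fluorescence from Ub-AMC cleavage, excitation 355 nm, emission 460 nm | Benchmarks: Wells without proteasome as full block, compound-free enzyme plus substrate as uninhibited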
# The depositor's hits bear a star. The list is partial. The share of hits here may be higher or lower than overall.
# Order of results: E coli growth	UCH37 DUB inh
- C=CCOC(=O)C1=C(C)Nc2[nH]c(=O)[nH]c(=O)c2C1c1cccc(OC)c1 (stereo not drawn)
→ 0.72	1.4
- COc1ccc(OC)c(C=NNC(=O)CSc2nnc(CCCc3ccc(OC)c(C)c3)o2)c1
→ 0.69	-281
- O=C(NN=Cc1ccc(O)cc1)c1ccc(NC(=O)c2ccccc2Br)cc1
→ 0.69	3.2
- O=C(NN=Cc1ccncc1)c1nn(Cc2ccccc2)c(=O)c2ccccc12
→ 0.72	1.8
- Cc1cccc(C=NNC(=O)c2c(-c3ccccc3)noc2C)c1O
→ 0.62	0.2
- C(=NNc1ccc2ccccc2n1)c1ccc2c(c1)OCCO2
→ 0.63	-75
- N#Cc1c(-n2cccc2C=NO)sc2c1CCCC2
→ 0.74	2.7
- CC(=NNC(=O)CNC(=O)C1COc2ccccc2O1)c1ccc(Cl)cc1 (stereo not drawn)
→ 0.66	5.5
- Nc1nonc1-n1nnc(C(=O)NN=Cc2cccnc2)c1CSC1=NCCS1
→ 0.65	4.4
- C/C(C=Nn1c(-c2ccccc2)n[nH]c1=S)=C\c1ccco1
→ 0.72	3.2
- COc1cc(C=NNC(=O)CNC(=O)c2ccc3c(c2)OCCO3)ccc1O
→ 0.66	-2.8
- Cc1c(Br)c([N+](=O)[O-])nn1CC(=O)Nc1ccc(CC#N)cc1
→ 0.71	-1.6
- COc1ccc(C=NNc2ccccc2[N+](=O)[O-])c(C(=O)O)c1OC
→ 0.71	14
- CCC1CCCC1=NNC(=O)c1cc(C)[nH]n1 (stereo not drawn)
→ 0.67	0.9
- COc1ccc2nc(N=Nc3c(O)ccc4ccccc34)sc2c1
→ 0.71	4.6

# Arranged by value in UCH37 DUB inh (ascending): three of the compounds above.
SMILES | UCH37 DUB inh
C(=NNc1ccc2ccccc2n1)c1ccc2c(c1)OCCO2 | -75
CCC1CCCC1=NNC(=O)c1cc(C)[nH]n1 (stereo not drawn) | 0.9
COc1ccc(C=NNc2ccccc2[N+](=O)[O-])c(C(=O)O)c1OC | 14

# Continuation:
# Order of results: E coli growth	UCH37 DUB inh
- O=C(NN=Cc1ccsc1)c1c[nH]c2ccccc12
→ 0.69	5.3
- O=C(CN(Cc1ccccc1)S(=O)(=O)c1ccccc1)NN=Cc1ccc2c(c1)OCO2
→ 0.66	4.8
- O=C(COc1ccc(C=NNS(=O)(=O)c2ccccc2)cc1)Nc1ccc(F)cc1
→ 0.74	-0.6
- O=C(NN=Cc1cc2c(cc1[N+](=O)[O-])OCO2)c1cccs1
→ 0.61	2.7
- O=C(O)c1ccc(NN=C2CCCc3ccccc32)cc1
→ 0.67	22*
- CC(=NNC(=O)Cn1ccc(C(F)(F)F)n1)c1ccco1
→ 0.66	-0.7
- Oc1ccccc1C=Nn1cnnc1
→ 0.68	-0.2
- COc1ccccc1N1CCN(N=C/C=C\c2ccccc2[N+](=O)[O-])CC1
→ 0.7	7.5
- CN(C)N=Cc1ccc(N2CCOCC2)cc1
→ 0.71	1.7
- CCc1ccc(C(C)=NNS(=O)(=O)c2ccc(OC)cc2)s1
→ 0.7	5.2
- COC(=O)c1cccc(Cn2c(Cl)c(C=NNC(=O)c3ccco3)sc2=O)c1
→ 0.68	1.1
- CC(=O)NN=Cc1cc(C(C)C)cc(C=NNC(C)=O)c1O
→ 0.64	-5.7
- CCOC(=O)c1ccccc1NC(=O)Cn1cnc2c(cnn2-c2ccc(OC)cc2)c1=O
→ 0.76	-19
- CC1CCC(=NNc2ccccc2)C(=O)N1 (stereo not drawn)
→ 0.66	10
- N#CCC(=O)NN=Cc1ccc(Cl)cc1
→ 0.67	4.2
- Cc1nn(-c2ccccc2)c(C)c1C=NNC(=O)CSc1nc2ccccc2c(=O)n1-c1ccc(Br)cc1
→ 0.76	2.4
- Cc1ccccc1NC(C)C(=O)NN=Cc1c[nH]c2ccccc12 (stereo not drawn)
→ 0.72	1.6
- Oc1ccc(C=NN2CCN(C3c4ccccc4-c4ccccc43)CC2)c(O)c1
→ 0.69	5.7
- Cc1ccc(S(=O)(=O)N2CCN(CC(=O)NN=Cc3ccc(Br)s3)CC2)cc1
→ 0.72	6.7
- C=C1CCC(C)C(C)(CCC2=CCOC2=O)CC=CC=C1C(=O)O (stereo not drawn)
→ 0.77	1.1
- CC(=NNC(=O)c1cc2ccccc2cc1O)c1cccs1
→ 0.6	2.9
- Cn1c(O)c(C=NCC2CCNCC2)c(=O)n(C)c1=O
→ 0.66	6.1
- CN(C)C(=O)C[n+]1cccc(C=NO)c1
→ 0.7	4.3
- O=C(O)c1cccc(NN=Cc2cc(Br)cc(Br)c2O)c1
→ 0.6	9.8
- CCOC(=O)NC(=O)C(C#N)=NNc1cccc(OC)c1
→ 0.68	1.3
- CC(=NOC(=O)c1ccccc1Br)c1ccc(C)cc1
→ 0.61	1.5
- Cc1ccc(C=NNC(=O)CNC(=O)C23CC4CC(CC(C4)C2)C3)o1
→ 0.71	1.7
- CCCOc1cccc(C(=O)NN=Cc2ccoc2)c1
→ 0.67	0.8
- CC(C)(C)OC(=O)N1CCC[C@H]1C(=O)NN=Cc1cccc2cccnc12
→ 0.7	9.2
- CNc1nc(C)nc(NN=Cc2ccccc2)n1
→ 0.68	-0.9

# Among those listed so far, these contain a Cl atom.
# Order of results: E coli growth	UCH37 DUB inh
- CC(=NNC(=O)CNC(=O)C1COc2ccccc2O1)c1ccc(Cl)cc1 (stereo not drawn)
→ 0.66	5.5
- COC(=O)c1cccc(Cn2c(Cl)c(C=NNC(=O)c3ccco3)sc2=O)c1
→ 0.68	1.1
- N#CCC(=O)NN=Cc1ccc(Cl)cc1
→ 0.67	4.2

# Following part
# Order of results: E coli growth	UCH37 DUB inh
- COc1ccc(-c2cc(C(=O)NN=C(C)c3ccco3)c3ccccc3n2)c(OC)c1
→ 0.72	-35
- COc1ccc(C=Nn2c(SC)nnc(C(C)(C)C)c2=O)cc1
→ 0.71	1.2
- Cc1ccccc1C=NNc1ccc(Cl)nn1
→ 0.66	-6.0
- COC(=O)c1ccc(CON=Cc2ccc(OC)cc2OC)cc1
→ 0.66	4.0
- CN(C)c1cc(NN=Cc2ccccc2C(F)(F)F)nc(N(C)C)n1
→ 0.7	-9.4
- Cc1nc(N=C(N)NC(=O)NC2CCCCC2)nc2ccccc12
→ 0.56	1.1
- CC(=O)Nc1cccc(C(C)=NNS(=O)(=O)c2ccccc2)c1
→ 0.67	4.1
- O=C(NN=Cc1cccc2nccnc12)c1ccncc1
→ 0.68	7.5
- O=C1C2C(C(=O)N1N=Cc1cc([N+](=O)[O-])ccc1O)C1C=CC2C12CC2 (stereo not drawn)
→ 0.69	12
- O=C(O)c1cc(-c2ccc(C=NNc3ccc([N+](=O)[O-])cn3)o2)ccc1Cl
→ 0.68	20
- CCOC(=O)Cc1csc(NN=Cc2ccccc2)n1
→ 0.68	2.8
- NC(=NOC(=O)COc1ccc([N+](=O)[O-])cc1)c1cccnc1
→ 0.71	5.7
- COc1ccc(C=NN2C(=O)c3ccccc3C2=O)cc1
→ 0.72	1.6
- O=C(Cn1cc(C=NNC(=O)c2cccc(C(F)(F)F)c2)c2ccccc21)Nc1ccc(F)cc1
→ 0.66	-52
- Nc1nonc1-n1nnc(C(=O)NN=Cc2cccs2)c1-c1ccc2c(c1)OCO2
→ 0.67	5.8
- COc1ccc2[nH]c(C(=O)NN=Cc3cc(OC)c(OC)c(OC)c3)cc2c1
→ 0.63	-40
- O=C(NN=Cc1cn[nH]c1-c1ccccc1)c1cccs1
→ 0.69	0.5
- ON=Cc1ccccc1Oc1ccc(F)cc1
→ 0.68	3.7
- Cc1ccc(C=NNC(=O)Cc2cccn2C)o1
→ 0.69	4.2
- CC(=NO)c1ccc(Cl)c(Cl)c1
→ 0.67	-0.7
- COc1ccc(OC)c(C=NNc2nccs2)c1
→ 0.69	0.0
- O=S(=O)(N=C(c1ccc(Cl)cc1)N1CCOCC1)c1ccc(Cl)cc1
→ 0.68	4.0
- Cc1ccc(Sc2ncccc2C=NO)cc1
→ 0.67	-1.9
- COc1ccc(OC)c(C=Nn2c(-c3n[nH]c4c3CCC4)n[nH]c2=S)c1
→ 0.7	3.0
- CCc1c(C)c(C#N)c2nc3ccccc3n2c1N1CCN(c2cc(C)ccn2)CC1
→ 0.68	-5.7
- COc1cc(C=NNC(=O)c2nonc2N)cc(OC)c1OC
→ 0.69	9.3
- CCOC(=O)c1sc(N=Cc2c(O)ccc3ccccc23)cc1C
→ 0.73	6.8
- CC(Cn1nnc2ccccc21)=NNC(=O)c1cccc(Br)c1
→ 0.64	1.2
- COc1ccc(C=NNC(=S)Nc2cc(C(F)(F)F)ccc2Cl)cc1
→ 0.73	3.5
- O=C(O)c1cccc(NN=Cc2ccc(F)c(F)c2)c1
→ 0.69	7.3
- Cc1ccc2nc(-c3ccc(S(=O)(=O)N4CCOCC4)cc3)cn2c1
→ 0.7	-148
- COc1ccc(Br)cc1C=NNc1ccc(S(=O)(=O)Nc2ccccc2C(=O)O)cc1[N+](=O)[O-]
→ 0.66	12
- CCOC(=O)c1[nH]c(C)c(C=NO)c1C
→ 0.69	0.3
- O=C(NCc1cccnc1)C(=O)NN=Cc1ccccc1[N+](=O)[O-]
→ 0.65	6.1
- COc1cccc(C=NNC(=O)CCn2c3ccccc3c3ccccc32)c1
→ 0.74	-1.3
- S=c1[nH]nc(COc2ccccc2)n1N=Cc1ccc(Br)s1
→ 0.66	5.2
- CC(=NNC(=O)c1ccc(F)cc1)c1ccc(N2CCOCC2)cc1
→ 0.65	7.8
- CC(CCc1ccco1)=NNC(=O)CNc1c(Br)cc(Br)cc1Br
→ 0.64	1.1
- CCOc1ccc(/C=C2\SC(=O)N(c3ccc(O)cc3)C2=O)cc1OC
→ 0.7	1.1
- CC(=NNC(=O)c1ccco1)c1ccc(NC(=O)c2ccccc2)cc1
→ 0.65	5.8
- COc1ccc(C(C)=NNc2cccc(C(=O)O)c2)cc1OC
→ 0.69	3.1
- Cc1cc(C(=O)NN=Cc2ccccn2)c2ccccc2n1
→ 0.7	1.1
- Oc1ccc(C=NNc2nc(-c3ccc(Cl)cc3)cc(C(F)(F)F)n2)cc1
→ 0.67	2.9
- COc1ccc(C=NNC(=O)c2ccn[nH]2)cc1CSc1ccccn1
→ 0.7	3.6
- CCN(CC)c1ccc(C(=O)NN=C(C)c2cccnc2)cc1
→ 0.66	17
- Cc1cc([N+](=O)[O-])nn1Cc1ccc(C(=O)NN=Cc2ccccc2)cc1
→ 0.72	2.1
- CC(=NNC(=O)CNc1ccc(Cl)cc1C)c1ccc(C)cc1
→ 0.75	34*
- COC(=O)c1ccc(C=NNC(=O)c2c(C)nc3ccc(Cl)cn23)cc1
→ 0.71	3.5
- CCC(=NN=C(CC)c1ccc(O)cc1)c1ccc(O)cc1
→ 0.65	4.1
- Cc1cccc(C)c1OCc1nc2ccccc2c(=O)n1N=Cc1c[nH]c2ccccc12
→ 0.71	3.7
- COCCNC(=O)C(=O)NN=C(C)CC(=O)Nc1cccc(C(F)(F)F)c1
→ 0.64	3.0
- O=C(Cc1c(Cl)cccc1Cl)NN=Cc1cccnc1
→ 0.7	-1.3
- O=S(=O)(NN=Cc1ccccc1O)c1ccc(Cl)cc1
→ 0.68	-1.0
- CC(C)Oc1cccc(C(=O)NN=Cc2coc3ccccc3c2=O)c1
→ 0.61	-42
- CCCCNC(=O)CCCCC(=O)NN=Cc1cccc(Cl)c1
→ 0.68	5.0
- CN(C)c1ccc(C=NNC(=O)CSc2ccccn2)cc1
→ 0.63	-41
- O=C(CNC(=O)c1ccncc1)NN=Cc1ccccc1[N+](=O)[O-]
→ 0.64	3.6
- CC(=NN=C(N)N)c1cc(Cl)ccc1Cl
→ 0.64	1.5
- CC(=NN=Cc1ccc(N(C)C)cc1)c1cccc([N+](=O)[O-])c1
→ 0.72	4.0
- NC(=O)NN=Cc1c(O)ccc2oc3c(c12)CCCC3
→ 0.69	2.6

# (listing goes on)
# Order of results: E coli growth	UCH37 DUB inh
- CC(C)CN1CN(S(=O)(=O)c2cccs2)c2nc3ccccc3nc21
→ 0.75	-11
- COc1cc(C=NN=C(N)c2nonc2N)cc(Br)c1OCc1ccccc1C
→ 0.73	7.4
- CC(=NNC(=O)CCCNc1ccccc1)c1ccncc1
→ 0.67	0.5
- O=C(NN=Cc1cccnc1)c1cccc(NC(=O)c2ccc(Cl)cc2)c1
→ 0.68	4.6
- O=C(CN(Cc1ccccc1)S(=O)(=O)c1ccccc1)NN=Cc1ccccc1[N+](=O)[O-]
→ 0.66	2.4
- CC(CC(=O)Nc1ccc(Cl)c(C(F)(F)F)c1)=NNC(N)=S
→ 0.65	4.5
- O=[N+]([O-])c1ccc(Cl)c(C=NN2CCN(Cc3ccc(Cl)cc3)CC2)c1
→ 0.72	-0.2
- Cc1cc(C)nc(N2CCCC(C(=O)Nc3nnc(C(C)C)s3)C2)n1 (stereo not drawn)
→ 0.72	-0.8
- COc1ccc(C=NNC(=O)Cc2n[nH]c(=O)[nH]c2=O)cc1
→ 0.75	2.0
- O=[N+]([O-])c1cc(S(=O)(=O)N2CCCC2)ccc1NN=Cc1ccccn1
→ 0.69	9.4
- CC(=NNC(=O)c1cccc(O)c1)c1cccc(NC(=O)c2ccc(F)cc2)c1
→ 0.66	0.6
- COc1ccc(/C=C/C(=O)NCC(=O)NN=Cc2cc(Br)ccc2OC)cc1
→ 0.65	3.6
- COc1cccc(C=NNC(=O)CC(C)O)c1OC/C=C/c1ccccc1 (stereo not drawn)
→ 0.69	-3.6
- COc1ccccc1-c1cc(C(=O)NN=Cc2cnn(C)c2C)c2ccccc2n1
→ 0.67	6.0
- COc1ccc(C=NNC(=O)c2ccc(COc3cccc4cccnc34)cc2)cc1OC
→ 0.7	-12
- COc1cc(C=NNC(=O)C(=O)/C=C2\NC3(CCCC3)Cc3ccccc32)ccc1O
→ 0.68	6.3
- Cc1ccc(S(=O)(=O)Nc2nc(C)cc(NN=Cc3ccc(O)cc3)n2)cc1
→ 0.71	6.4
